Sa RN4220 lethal – S. aureus RN4220 growth inhibition; 330,000 tested, 0.33% active; OD600, 16 h; inhibition, % (test concentration not listed);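 active = z-score of -3 or lower and OD600 up to 0.18 on both plates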;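 note: plate controls were untreated cells for no effect and reference antibiotic for full effect; stock transfer was 100 nL into about 80 µL; one replicate is shown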
Bead autofluor – compound fluorescence in toxin protease inhibitor counterscreen. compound autofluorescence counterscreen, microsphere flow cytometry; stronger effect = higher value. fluorescence intensity (concentration not given with the values). 360,000 tested, 3.1% active. AID 624483;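 active = at least 3 SD above the mean of all compounds, about 16000 in these data; inconclusive = too few beads counted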;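 note: 100 nL of 1 mM stock went into each well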
Mtb hypoxia inh – Mtb hypoxia fluorescent reporter inhibition | fluorescence inhibition, % (concentration not given with the values) | M. tuberculosis hypoxia-regulated fluorescent reporter, fluorescence | 300,000 tested, 0.1% active;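 active = 35 to 45% if threefold the growth effect, above 45% if 1.5-fold the growth effect; inactive = the rest, general growth blockers included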;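 note: wells of about 50 µL received 100 nL stock; 0% = vehicle wells and 100% = reference inhibitor wells; whole bacteria with a GFP reporter of the hypoxia response; strong numbers were not always called active; many hits fall short of the cut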
BJeLR viability – BJeLR cell viability loss; 300,000 tested, 0.17% active; inhibition, % (no concentration beside the values); BJeLR (HRASV12) viability, CellTiter-Glo ATP luminescence, 48 h; reference of the scale not given here; AID 1554;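 active = replicate mean above 50%; inconclusive = above 50% but judged a plate artefact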;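 note: 50 nL library stock added to about 25 µL; numbers are from one replicate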
PrP UTR inh – suppresses PrP 5' UTR mRNA reporter expression. cell-based PrP 5' UTR mRNA reporter, plate reader. inhibition, % (no concentration beside the values). 340,000 tested, 0.35% active. AID 488862;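 active = every replicate at 50% or more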;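 note: 0 = median of the neutral control wells; tested in H4 reporter cells; numbers are from one replicate; inactives centre near -14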
Sa ugtP lethal – kills S. aureus RN4220 lacking UgtP; S. aureus RN4220 ugtP deletion, OD600 growth, 16 h; some inactives read as strong as hits; 330,000 tested, 0.54% active; growth inhibition, % (concentration not given with the values);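 active = z-score under -3 and OD600 up to 0.15 on both plates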;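 note: plate controls were untreated wells for no effect and antibiotic for full effect; wells of about 80 µL received 100 nL stock; the first replicate is given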
Mtb hypoxia inh growth – also measured in Mtb hypoxia inh; calls as there; growth inhibition, %; measured here: M. tuberculosis growth (absorbance);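 0% = vehicle and 100% = reference antibiotic; read after six days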
An asterisk follows results filed as active; ? = inconclusive; . = no result given.

SMILES	Sa RN4220 lethal	Bead autofluor	Mtb hypoxia inh	Mtb hypoxia inh growth	BJeLR viability	PrP UTR inh	Sa ugtP lethal
CON1C(=O)C(=O)N(OC)C2CCCCCC21 (configuration not stated)	4.0	2704	4	7	-13	-10	1
COCCNc1nc(C)cc(-c2cc(C(=O)Nc3ccccc3)on2)n1	.	4001	.	.	-4	-20	.
CC1CCN(C(=O)C2(NC(=O)Nc3cccc(F)c3)CCCCC2)CC1	-13	2801	14	8	-4	-15	-7
COc1cc(CCC(=O)Nc2nccs2)cc(OC)c1OC	4.0	3501	-2	7	-11	-8	10
O=C(O)CSc1nnc2c(n1)[nH]c1ccccc12	5.1	4094	-1	13	3	-24	6
O=C(/C=C/Nc1ccccc1F)c1cccs1	6.6	2131	-7	1	6	-9	-12
O=C(CNC(=O)c1ccccc1F)NCCc1ccc(Cl)cc1	1.8	3931	-4	6	3	-16	4
COc1ccccc1-c1cc(C(=O)NN)[nH]n1	2.2	.	8	-2	-6	-12	4
COc1ccccc1C(O)(C(=O)N(NC(C)=O)c1ccccc1)c1ccccc1OC	6.0	3365	3	2	15	-11	5
CCOc1cc(C)c(Cl)cc1S(=O)(=O)n1nnc2ccccc21	9.8	10494	11	10	2	-25	7

Compounds from the list above with an aryl methoxy group:
SMILES	Sa RN4220 lethal	Bead autofluor	Mtb hypoxia inh	Mtb hypoxia inh growth	BJeLR viability	PrP UTR inh	Sa ugtP lethal
COc1cc(CCC(=O)Nc2nccs2)cc(OC)c1OC	4.0	3501	-2	7	-11	-8	10
COc1ccccc1-c1cc(C(=O)NN)[nH]n1	2.2	.	8	-2	-6	-12	4
COc1ccccc1C(O)(C(=O)N(NC(C)=O)c1ccccc1)c1ccccc1OC	6.0	3365	3	2	15	-11	5

Single entries from the list.
Result of `COc1ccccc1-c1cc(C(=O)NN)[nH]n1` under BJeLR viability: -6
Result of `COCCNc1nc(C)cc(-c2cc(C(=O)Nc3ccccc3)on2)n1` under PrP UTR inh: -20

Random excerpt: two compounds from above, in no set order.
SMILES	Sa RN4220 lethal	Bead autofluor	Mtb hypoxia inh	Mtb hypoxia inh growth	BJeLR viability	PrP UTR inh	Sa ugtP lethal
COc1cc(CCC(=O)Nc2nccs2)cc(OC)c1OC	4.0	3501	-2	7	-11	-8	10
COc1ccccc1C(O)(C(=O)N(NC(C)=O)c1ccccc1)c1ccccc1OC	6.0	3365	3	2	15	-11	5

The list goes on.
SMILES	Sa RN4220 lethal	Bead autofluor	Mtb hypoxia inh	Mtb hypoxia inh growth	BJeLR viability	PrP UTR inh	Sa ugtP lethal
O=C(O)c1ccc(S(=O)(=O)c2ccc3c(c2)C(=O)N(c2ccc(Br)cc2)C3=O)cc1	3.2	3639	9	-2	6	-6	17
CCC(=O)Nc1ccc(C(=O)Nc2cccc(C)n2)cc1	.	2599	.	.	-7	-11	.
O=C(Cn1cnc2sc(-c3ccccc3)cc2c1=O)NCc1ccco1	-2.8	2568	.	.	.	-15	-8
Cn1cc(CN(Cc2ccccc2)C[C@@H]2CCC(=O)N2)c(-c2ccccc2F)n1	17	4463	-13	-4	3	-12	11
CC[C@]12c3[nH]c4ccccc4c3CCN1C(=O)C(CC(=O)NCCc1ccccn1)C[C@@H]2C(=O)N1CCN(C(=O)C2CC2)CC1 (some centres not stated)	3.2	3086	4	2	.	-7	7
Cc1cccc2cc(C=NNC(=O)[C@H]3C[C@@H]3c3ccccc3)c(Cl)nc12	-1.0	.	-10	-9	.	.	-6
NCCc1c[nH]c2ccc(OCc3ccccc3)cc12	-4.5	3444	3	-12	1	-11	-3
CCOc1ccc(OCc2ccc(C(=O)NCc3cccnc3)o2)cc1	4.7	3011	.	.	-1	-13	4
CC(C)(C)NC(=O)c1sccc1C(=O)O	0.1	11060	1	6	-18	.	4
COc1cccc(N2C(=O)NC(=O)C3(Cc4cc(C)ccc4N(C)C3)C2=O)c1 (configuration not stated)	-4.5	2993	.	.	-3	5	-3
COc1ccccc1NC1CCCCC1NS(=O)(=O)c1ccccc1 (configuration not stated)	8.3	5571	-2	0	0	-7	-3
COc1ccccc1NC(=O)c1ccc(NC(=O)Cc2n[nH]c(=O)c3ccccc23)cc1	1.5	5272	3	-6	12	-12	7
COc1ccccc1C(=O)Nc1nnc(S(=O)(=O)N2CCCCCC2)s1	7.7	4353	11	6	8	-23	6
CC(=O)Nc1nc(-c2ccc3ccccc3c2)cs1	0.5	3641	0	-3	-1	-74	2
C=CCNC(=S)N1CCN(Cc2ccc3c(c2)OCO3)CC1	3.6	4626	12	2	-8	-19	6
COc1ccc(NC(=O)CNc2cccc(C#N)c2)cc1Cl	-6.7	4100	.	.	-2	0	-7
S=C(NCCN1CCOCC1)Nc1ccc(Cl)cc1	0.4	2397	7	8	9	0	5
CC(C)(C)c1ccc(OCc2ccc(C(=O)N3CCOCC3)o2)cc1	12	1898	3	14	5	-27	8
Brc1ccc(OCc2nnc3n2CCC3)cc1	2.2	2003	36*	19*	5	-19	-2
O=C(Nc1c(Cl)cc(Cl)cc1C(=O)NCc1cccnc1)c1ccc(Cl)cc1Cl	5.0	2924	5	-4	.	-16	-1
CCn1c(=O)ccc2cc([N+](=O)[O-])ccc21	5.5	4362	-6	-6	-4	-8	0
O=C(COc1ccc(/C=N/NC(=O)c2ccncc2)cc1)Nc1ccccc1	.	3556	.	.	-1	-30	.
CC(C)CN(C(=O)COC(=O)Cc1c[nH]c2ccccc12)c1c(N)n(Cc2ccccc2)c(=O)[nH]c1=O	3.3	4063	-1	-4	-5	8	5
COc1ccccc1CNc1cc(C)ccn1	5.1	2910	-5	2	-2	-11	4
O=c1nc2n(c3c4c(sc13)CCC4)CCC2	5.4	4335	12	7	-4	-15	-2
Nc1nc2c3ccccc3nc(C3CC3)n2n1	5.0	2085	.	.	-4	-8	11
O=C(O)c1ccc2c(c1)C(=O)N(c1ccc(OCc3ccccc3)cc1)C2=O	1.4	3808	19	-3	-8	-8	1
O=C1c2cc(Br)ccc2OC2C=CC=CC12 (configuration not stated)	8.4	3622	-6	-4	.	-43	6
CC1=C(C(=O)Nc2cccc(F)c2)C(c2ccsc2)C2=C(CC(C)(C)CC2=O)N1 (configuration not stated)	1.4	2488	1	-8	19	-28	4
Cc1ccc(NC(=O)N2CCCC(c3ccccc3)C2)cc1 (configuration not stated)	3.0	3817	-2	5	8	-23	1
COc1cc(C(=O)Nc2ccc(C)c(S(=O)(=O)N(C)C)c2)ccc1OCC(=O)N1CCOCC1	1.6	?	9	8	3	-1	-1
COc1ccccc1-n1nnnc1S(=O)(=O)Cc1ccc(Cl)cc1	4.6	4316	.	.	5	-34	12
Cc1ccc(CC(=O)Nc2nc3ccccc3s2)cc1	-0.2	3673	4	5	12	-30	-9
COc1ccc(CN2C(=O)c3cccnc3C2=O)cc1S(=O)(=O)NCc1ccc(C)cc1	-1.6	5670	2	9	4	-13	0
Cc1ccc(-c2onc3ccc(C(=O)O)cc23)cc1	4.7	3683	3	8	-12	-34	7
Cn1ccnc1SCC(=O)N(C1CCCCC1)C1CCCCC1	1.7	3589	.	.	-1	-7	-2
Cc1ccccc1NC(=O)c1[nH]cnc1C(=O)NN	0.3	3791	16	4	-5	-21	14
CCCc1cc(NC(=O)CCl)n(-c2ccccc2)n1	4.7	2468	.	.	-1	-15	11
O=C(O)c1cccnc1SCc1ccccc1	-2.3	10824	-1	5	8	-18	-11
CCS(=O)(=O)N1CCC(C(=O)Oc2ccccc2Br)CC1	5.2	3959	5	-5	-4	-26	9
Cc1ccc(C)c(S(=O)(=O)NC(CC(C)C)C(=O)O)c1 (configuration not stated)	8.5	3665	3	5	0	-13	1
O=C(Nc1ccc(F)cc1)C(=O)c1cn(CC(=O)N2CCOCC2)c2ccccc12	-1.2	5889	10	6	2	-14	-1
Cc1ccc(CC(CC(=O)O)C(=O)NCc2ccccc2)cc1 (configuration not stated)	4.8	9332	2	1	2	-38	11
CC(C)C(NS(=O)(=O)c1ccc2c(c1)C(C)(C)C(=O)N2C)C(=O)NCc1ccc(F)cc1 (configuration not stated)	2.1	5632	.	.	12	-5	-3
COC(=O)[C@@H](NC(=O)Nc1ccccc1F)C(C)C	4.9	11400	8	-2	17	-19	4
CCOc1ccc(NC(=O)C(=O)NN=Cc2ccccc2F)cc1	5.6	.	-1	-3	.	.	-2
CCOc1ccc(/C=C/C(=O)N(CC)CC(=O)Nc2ccc3c(c2)OCCO3)cc1OC	5.9	6445	9	-2	3	-18	14
COc1ccc(C(=O)NCC(=O)OCC(=O)N2CCC(C)CC2)cc1OC	3.2	4622	8	7	0	3	4
Cc1ccc(CNC(=O)COC(=O)c2cncc(Br)c2)cc1	7.9	4558	3	2	0	-10	-1
CCN1C(=O)NC(c2cccs2)C(C(=O)OC)=C1C (configuration not stated)	3.7	.	5	6	.	.	-5

Full records, quoted from the list:
`Cc1ccc(CNC(=O)COC(=O)c2cncc(Br)c2)cc1` is entered as Sa RN4220 lethal: 7.9; Bead autofluor: 4558; Mtb hypoxia inh: 3; Mtb hypoxia inh growth: 2; BJeLR viability: 0; PrP UTR inh: -10; Sa ugtP lethal: -1
`CC(C)C(NS(=O)(=O)c1ccc2c(c1)C(C)(C)C(=O)N2C)C(=O)NCc1ccc(F)cc1` (configuration not stated) is entered as Sa RN4220 lethal: 2.1; Bead autofluor: 5632; Mtb hypoxia inh: .; Mtb hypoxia inh growth: .; BJeLR viability: 12; PrP UTR inh: -5; Sa ugtP lethal: -3

Continued.
SMILES	Sa RN4220 lethal	Bead autofluor	Mtb hypoxia inh	Mtb hypoxia inh growth	BJeLR viability	PrP UTR inh	Sa ugtP lethal
COCC1CCN(Cc2c(C(=O)N3CCN(C4CCCCC4)CC3)nc3ccccn23)C1 (configuration not stated)	4.0	4471	9	0	0	-16	8
CC(=NNC(=O)C1COc2ccccc2O1)c1ccco1 (configuration not stated)	0.6	.	4	5	.	.	-6
Cc1ccc(O)c(C(=O)C=Cc2ccc3c(c2)OCCO3)c1	-1.1	.	9	1	.	.	-8
O=C(C1=C(O)C(=O)N(CC2CCCO2)C1c1ccccc1[N+](=O)[O-])c1ccco1 (configuration not stated)	1.6	3743	3	1	1	-30	4
O=C(NN=Cc1ccccc1)C(=O)NN=Cc1ccccc1	0.6	.	-7	7	.	.	1
Cn1nnnc1Sc1ncnc2scc(-c3cccc(C(F)(F)F)c3)c12	9.3	3922	4	0	.	-15	2
O=C(Nc1ccccc1)N1CCCN(Cc2ccccc2F)C1	2.4	2914	5	-7	-6	0	4
COc1ccccc1/C=N/NC(=O)CCSc1ccccc1	.	2226	.	.	-8	-67	.
Cc1cccc(OCC(=O)OC(C)C(=O)Nc2ccc(S(=O)(=O)N3CCCCC3)cc2)c1 (configuration not stated)	-3.0	.	-2	-2	4	0	-3
Cn1ccsc1=NC(=O)Nc1ccccc1	0.9	.	3	7	.	.	13
CCOC(=O)C(NC(=O)c1ccc(OC)cc1)(OCC1(CC)COC1)C(F)(F)F (configuration not stated)	-1.6	3383	2	5	-6	-9	-8
COc1ccc(-c2noc(CCCC(=O)Nc3ccc(C(N)=O)cc3)n2)cc1OC	5.7	4365	8	8	-3	-17	13
